# Screening results (PubChem)
# Beta apoptosis = beta cell apoptosis inhibition. INS-1E cytokine-induced death, ATP luminescence, 48 h; percent of positive-control rescue, neutral wells zero. protection from apoptosis, % (test concentration not listed). actives 0.8% (n = 300,000). AID 435005;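 active = all replicates at 75% or more, or half of them and the mean; inconclusive = half reach 75% but not the mean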;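 note: 0% = cytokine-treated negative control wells and 100% = positive control rescue; higher means more ATP so stronger rescue from cytokine killing; wells of about 40 µL received 100 nL stock; the first replicate is given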
# Vif A3G = inhibitors of Vif binding to APOBEC3G peptide, primary screen, biochemical, TR-FRET, GST-Vif 1-94, biotin-A3G peptide, dose response retest (AID 1117319); TR-FRET GST-Vif / biotin-A3G peptide binding; higher % means a stronger effect; test concentration not given here; strong numbers were not always called active; actives 0.57% (n = 260,000); inhibition, %; hits with a dose series show IC50 in µM;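 active = above the screen mean plus three standard deviations and confirmed in dose response; inconclusive = results disagree or hit not tested in dose response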;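 note: Vif residues 1-94 fused to GST binding biotinylated APOBEC3G peptide 110-148; 0% = full assay without inhibitor and 100% = GST in place of GST-Vif; retest series ran down from 100 µM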
# Bfl-1 A1 inh = inhibitors of the anti-apoptotic protein A1, read as caspase activation. MEF A1-2A-BIM cells, Caspase-Glo 3/7 luminescence, 3 h; percent of clofoctol response, vehicle zero. actives 0.066% (n = 330,000). caspase activation, % (test concentration not listed);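 active = over half of replicate activation scores above 10%, or exactly half above 10 with the replicate mean above 10; inconclusive = replicate mean below 10 yet half the replicates above 10; inactive = over half of replicates below 10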;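 note: wells of about 30 µL received 50 nL stock; many hits fall short of the cut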
# MLL AF4-AF9 inh = inhibitors of human MLL-AF4/AF9 interaction | inhibition, % at 10 µM | P42568 | actives 0.47% (n = 350,000) | AID 651704 | AlphaScreen, biotin-AF4 peptide binding to FLAG-AF9;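 active = every replicate reaching a set inhibition limit, whatever the replicate mean, cut at about 25% in these data; inconclusive = mean inhibition reaches that limit but some replicates miss it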;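 note: 0% = plate neutral control median and 100% = total signal loss; the record names both 10 and 1 µM as test concentration; the first replicate is given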
# Calb FLC = C. albicans growth modulation with fluconazole | AID 1979 | actives 0.57% (n = 300,000) | C. albicans CaCi-2 (fluconazole-resistant clinical isolate) + fluconazole, Alamar Blue growth, 48 h | growth inhibition, % (no concentration beside the values);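 active = most replicates above 75%; inconclusive = exactly half above 75%; inactive = most below 75%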;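 note: all wells also contain fluconazole at 8 µg/ml as a sub-toxic cotreatment; 0% = median of DMSO wells and 100% = median of geldanamycin control wells; wells of about 8 µL received 7.5 nL stock; the first replicate is given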
# T cruzi repl = blocks replication of Trypanosoma cruzi. T. cruzi beta-gal in NIH3T3, luminescence, 90 h. actives 1.4% (n = 300,000). inhibition, % (no concentration beside the values);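 active = mean inhibition across valid replicates above about 55%, limit read from the data; inconclusive = mean below that limit but half or more replicates reach it; inactive = mean below it, under half of replicates reach it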;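 note: signal also drops with host cell toxicity which is not excluded here; 0% = plate median of DMSO wells and 100% = zero luminescence signal; higher percent means less beta-gal luminescence so fewer parasites; stock transfer was 50 nL into about 50 µL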
# RanGTP-Imp inh = inhibitors of RanGTP-importin-beta interaction, primary screen, biochemical, FRET, CFP-Ran, YFP-importin-beta, homogeneous. cell-free CFP-Ran/YFP-importin-beta FRET ratio. actives 1.1% (n = 300,000). AID 2216. inhibition, % (test concentration not listed);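 active = most replicates above 15%; inconclusive = exactly half above 15%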;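 note: 0% = DMSO wells and 100% = Ran loaded with GDP instead of GTP; wells of about 40 µL received 100 nL stock; the first replicate is given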
# LANA-H2A inh = blocks KSHV LANA binding to histone H2A/H2B; cell-free LANA-H2A/H2B peptide, fluorescence polarization; inhibition, % (concentration not given with the values); actives 0.6% (n = 320,000); AID 2629; in the data active = inhibition mostly above about 10%, no sharp cut-off; inactive = mostly below about 6.7%;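 note: stock transfer was 7.5 nL into about 10 µL; 0% = median of vehicle wells and 100% = median of positive control wells; one replicate is shown; the record names a cut of 25% in any replicate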
# Target sequence (Q9QR71 whole entry, looked up): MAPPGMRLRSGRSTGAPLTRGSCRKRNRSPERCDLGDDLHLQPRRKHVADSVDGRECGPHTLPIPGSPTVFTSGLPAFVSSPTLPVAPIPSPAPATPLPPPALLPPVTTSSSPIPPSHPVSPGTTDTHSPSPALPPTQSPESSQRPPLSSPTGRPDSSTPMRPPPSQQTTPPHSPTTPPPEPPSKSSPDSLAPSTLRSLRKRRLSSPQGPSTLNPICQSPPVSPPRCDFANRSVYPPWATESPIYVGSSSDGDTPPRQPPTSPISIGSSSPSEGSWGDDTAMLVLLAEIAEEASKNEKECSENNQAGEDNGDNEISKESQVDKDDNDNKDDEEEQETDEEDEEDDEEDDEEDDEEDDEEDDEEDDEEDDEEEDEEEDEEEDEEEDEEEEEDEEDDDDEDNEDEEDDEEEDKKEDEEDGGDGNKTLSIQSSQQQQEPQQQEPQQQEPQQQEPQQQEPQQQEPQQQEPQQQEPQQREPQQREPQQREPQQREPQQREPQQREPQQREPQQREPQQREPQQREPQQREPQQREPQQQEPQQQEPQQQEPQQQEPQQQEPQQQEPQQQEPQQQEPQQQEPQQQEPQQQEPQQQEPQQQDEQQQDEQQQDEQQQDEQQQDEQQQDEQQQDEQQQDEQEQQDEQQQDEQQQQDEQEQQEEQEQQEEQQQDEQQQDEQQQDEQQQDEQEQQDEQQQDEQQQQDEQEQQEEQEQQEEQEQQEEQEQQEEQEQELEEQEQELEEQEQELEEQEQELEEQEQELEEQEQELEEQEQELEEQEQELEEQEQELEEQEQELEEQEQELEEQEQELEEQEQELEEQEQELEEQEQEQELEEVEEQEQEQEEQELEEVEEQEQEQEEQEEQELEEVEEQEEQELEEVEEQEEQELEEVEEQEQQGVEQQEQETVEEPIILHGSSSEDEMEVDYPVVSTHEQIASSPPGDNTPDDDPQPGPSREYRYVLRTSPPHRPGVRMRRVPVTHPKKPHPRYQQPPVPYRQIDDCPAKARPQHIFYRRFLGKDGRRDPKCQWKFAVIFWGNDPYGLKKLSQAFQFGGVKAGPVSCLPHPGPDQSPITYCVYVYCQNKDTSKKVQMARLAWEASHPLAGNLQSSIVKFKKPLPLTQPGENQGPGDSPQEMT
# Numbers without * were called inactive; ? = inconclusive; / = not tested or not shown.
1: Cc1ccc(NS(=O)(=O)c2ccc3c(c2)NC(=O)C(C)C(=O)N3)c(Cl)c1 (stereo not given)
2: O=C(CSc1ccccc1)Nc1ccccc1N1CCOCC1
3: CC(C)C(=O)N1CCN(c2nc3ccc(Cl)cc3s2)CC1
4: O=C(CN(c1ccc(F)cc1)S(=O)(=O)c1ccc2c(c1)OCCO2)Nc1cccnc1
5: CC(C)C1CC(=O)NC(SCC(=O)Nc2ccc(Br)cc2)=C1C#N (stereo not given)
6: COc1ccc(-c2nc3ccccc3c(=O)n2CC(C)C)cc1
7: CCN(c1ccccc1)S(=O)(=O)c1ccc(Cl)c(NC(=O)CN2CCN(C)CC2)c1
8: O=C(Nc1ccc(NC(=O)C2CCCN2C(=O)OCc2ccccc2)cc1)c1ccco1 (stereo not given)
Screen / compound no.,1,2,3,4,5,6,7,8
Beta apoptosis,-2.5,4.4,/,3.4,11.6,-1.7,-2.2,2.4
Vif A3G,/,1.1%,/,6.1%,3.2%,-3.2%,-10.7%,-5.8%
Bfl-1 A1 inh,0.2,-0.8,-1.0,0.0,0.0,2.7,-0.3,0.9
MLL AF4-AF9 inh,-2.0,/,-1.5,/,/,-1.5,12.3,/
Calb FLC,-1.6,-1.4,-0.6,-9.9,-10.4,3.0,/,14.2
T cruzi repl,-7.6,0.7,5.2,10.6,-15.5,5.2,/,2.2
RanGTP-Imp inh,3.3,-1.6,3.8,-4.7,-1.5,-4.6,/,6.1
LANA-H2A inh,-2.7,-3.3,-1.1,2.8,-4.5,0.2,-5.6,1.8

9: Cc1ccc[n+](C(C)C(=O)Nc2ccc(C)c(C)c2)c1 (stereo not given)
10: O=C(CCSc1ccc(Cl)cc1)N1CCCCCC1
11: S=C(c1ccc(Br)cc1)N1CCN(Cc2ccccc2)CC1
12: CSCc1cc(N(C)c2ccccc2)nc(-c2ccccn2)n1
13: FC(F)(F)c1cccc(NC(=S)NCc2ccccn2)c1
14: CCc1ccc(NC(=O)CN(c2ccc3c(c2)OCO3)S(=O)(=O)c2c(C)noc2C)cc1
15: CCCC(=O)Nn1cnc2c(c1=O)C1(CCCCC1)Cc1ccccc1-2
16: COc1ccc2c(c1)[nH]c1c(Cl)ncnc12
Screen / compound no.,9,10,11,12,13,14,15,16
Beta apoptosis,0.9,-0.9,-1.4,54.8,3.9,/,1.6,-7.2
Vif A3G,-3.3%,-0.1%,19.5%,/,/,-2.6%,-5.7%,27.8%
Bfl-1 A1 inh,-0.2,0.1,-0.3,-0.2,0.6,1.5,-2.0,0.0
MLL AF4-AF9 inh,-1.6,/,20.5,4.1,/,-32.5,/,-1.5
Calb FLC,-3.0,-3.7,0.6,-32.5,-7.8,3.8,-15.6,?
T cruzi repl,-7.9,-1.6,37.0,60.1*,3.1,14.8,1.1,6.3
RanGTP-Imp inh,-2.3,-5.2,-0.9,-1.8,-0.1,0.7,8.2,-0.6
LANA-H2A inh,-4.5,1.1,-5.3,-5.4,-2.9,-1.0,1.1,-3.5

17: CCC1CCCCN1C(=S)Nc1cccc(S(=O)(=O)N(C)C)c1 (stereo not given)
18: Cc1ccc(Nc2nc(-c3sc(NC(=O)c4ccc([N+](=O)[O-])cc4)nc3C)cs2)cc1
19: FC(F)(F)COc1nc(N/N=C/c2cccnc2)nc(N2CCCCC2c2ccccn2)n1 (stereo not given)
20: COc1ccc(C)cc1S(=O)(=O)N(C)CC(=O)N1CCN(C)CC1
21: Cn1cccc1/C=N/N1CCN(c2ccccn2)CC1
22: O=C(NC(Cc1ccccc1)C(=O)O)/C(=C\c1ccccc1)NC(=O)c1ccco1 (stereo not given)
23: Cc1ccsc1C(=O)Nc1ccc(C(=O)O)cc1
24: CCOc1ccc2nc(NCCCNS(=O)(=O)c3ccc(F)cc3)c(C#N)cc2c1
Screen / compound no.,17,18,19,20,21,22,23,24
Beta apoptosis,-2.5,5.1,12.3,0.3,3.3,3.2,3.8,/
Vif A3G,-0.4%,32.0%,-0.7%,16.6%,20.8%,/,1.9%,10.9%
Bfl-1 A1 inh,0.5,1.4,0.7,0.0,0.2,0.5,-9.2,-0.9
MLL AF4-AF9 inh,-0.5,/,2.4,/,4.8,0.6,/,8.9
Calb FLC,-26.5,6.6,11.4,-3.9,-1.4,-4.6,/,10.8
T cruzi repl,-10.6,2.9,59.0*,-10.2,-8.8,1.0,/,-4.2
RanGTP-Imp inh,0.7,-4.1,-1.2,0.8,-1.2,5.8,/,131.9*
LANA-H2A inh,1.5,-1.1,2.5,-2.3,0.8,-0.3,-0.5,-2.7

# Rewritten as tab-separated lines: part of the list above.
entry	canonical_smiles	Beta apoptosis	Vif A3G	Bfl-1 A1 inh	MLL AF4-AF9 inh	Calb FLC	T cruzi repl	RanGTP-Imp inh	LANA-H2A inh
19	FC(F)(F)COc1nc(N/N=C/c2cccnc2)nc(N2CCCCC2c2ccccn2)n1 (stereo not given)	12.3	-0.7%	0.7	2.4	11.4	59.0*	-1.2	2.5
20	COc1ccc(C)cc1S(=O)(=O)N(C)CC(=O)N1CCN(C)CC1	0.3	16.6%	0.0	/	-3.9	-10.2	0.8	-2.3
21	Cn1cccc1/C=N/N1CCN(c2ccccn2)CC1	3.3	20.8%	0.2	4.8	-1.4	-8.8	-1.2	0.8

# New compounds follow.
25: CCN(C(=O)c1cc2c(=O)[nH]c3ccc(C)cc3c2s1)c1ccc(F)cc1
26: O=C(NC(=O)c1ccccc1O)c1ccc(C(F)(F)F)cc1
27: O=C(O)CNC(=S)N(Cc1ccccc1Cl)C1CCCCC1
28: OC(COc1ccccc1)CN1CCC(Cc2ccccc2)CC1 (stereo not given)
29: O=C(/C=C/c1ccco1)Nc1ccc2nn(-c3ccccc3)nc2c1
30: CN(C)S(=O)(=O)c1cc(NC(=O)CN2CCCc3ccccc32)ccc1Cl
31: CC1CCCC(C)N1C(=O)COC(=O)CNC(=O)c1sc2ccccc2c1Cl (stereo not given)
32: CCn1c(C(=O)OC)cc2c1ccn2-c1ccc(F)cc1
Screen / compound no.,25,26,27,28,29,30,31,32
Beta apoptosis,7.3,-2.1,-0.9,3.2,1.4,/,1.9,3.0
Vif A3G,/,16.1%,/,11.2%,/,1.7%,-14.2%,70.6%
Bfl-1 A1 inh,-0.4,-3.5,0.5,0.0,0.6,-0.4,-0.8,0.3
MLL AF4-AF9 inh,7.1,-0.5,6.2,2.1,2.1,10.0,-26.2,/
Calb FLC,14.6,?,-1.7,-2.9,-0.4,-22.1,2.3,-3.0
T cruzi repl,40.6,-10.7,-1.4,9.8,2.3,2.4,-13.4,-7.4
RanGTP-Imp inh,0.0,3.4,1.8,-3.3,0.4,5.5,10.8,0.8
LANA-H2A inh,-2.4,7.3,-5.9,-0.8,-0.2,4.3,/,1.7

# Some of these compounds in order of the RanGTP-Imp inh value, high to low.
No.	canonical_smiles	RanGTP-Imp inh
31	CC1CCCC(C)N1C(=O)COC(=O)CNC(=O)c1sc2ccccc2c1Cl (stereo not given)	10.8
30	CN(C)S(=O)(=O)c1cc(NC(=O)CN2CCCc3ccccc32)ccc1Cl	5.5
26	O=C(NC(=O)c1ccccc1O)c1ccc(C(F)(F)F)cc1	3.4

# The list goes on.
33: Cc1cc2c(=O)n(CC(=O)NCC(=O)N3CCN(Cc4ccccc4)CC3)cnc2s1
34: COc1ccc(NC(=O)c2sc3nc(C)nc(N4CCN(c5ccccn5)CC4)c3c2C)c(OC)c1
35: NC(=O)CC(NC(=O)c1ccccc1)c1ccc(NCCc2cccc(F)c2)c([N+](=O)[O-])c1 (stereo not given)
36: CCOC(=O)C1CCN(C(=O)Nc2ccc(OC)c(OC)c2)CC1
37: CC(=O)N1CCCC(C(=O)c2ccc3c4c(cccc24)CC3)C1 (stereo not given)
38: COc1ccc(C(=O)NNC(=O)CSc2nnc(COc3ccccc3)n2C)cc1
39: COc1ccccc1/C=C/C(=O)c1ccc(NC(C)=O)cc1
40: CCc1cc2c(SCC(=O)c3cccs3)ncnc2s1
Screen / compound no.,33,34,35,36,37,38,39,40
Beta apoptosis,1.6,28.6,-5.2,3.0,-0.9,-2.6,-3.5,3.2
Vif A3G,3.1%,2.6%,/,-4.8%,-5.0%,2.3%,/,-11.5%
Bfl-1 A1 inh,-0.7,1.0,-0.6,1.6,-0.1,0.0,1.2,0.6
MLL AF4-AF9 inh,/,-9.3,-3.4,/,/,/,-2.8,/
Calb FLC,8.1,1.2,10.3,11.7,17.2,2.8,31.8,19.4
T cruzi repl,39.4,-2.5,-8.1,/,-8.4,-2.6,-0.7,18.9
RanGTP-Imp inh,?,?,-3.6,7.7,3.5,1.3,2.7,?
LANA-H2A inh,7.0,5.8,0.9,2.4,1.3,-1.7,2.8,-1.2

41: N#C/C(=C\c1cccc([N+](=O)[O-])c1)C(=O)NCc1cccnc1
42: COc1ccc(NC(=O)COC(=O)CC2CCCC2)cc1
43: O=C(CCNC(=O)c1ccccc1Cl)NCCc1ccc(C(F)(F)F)cc1
44: COc1ccc(NC(=O)NNC(=O)c2cc(C3CC3)nc3ccccc23)c(OC)c1
45: CCOc1ccc(N(Cc2ccc(OC)cc2)C(=O)c2ccco2)cc1
46: CC(=O)N(CCC1(C(C)C)CCOC(C)(C)C1)C(C)c1cccs1 (stereo not given)
47: COc1ccc(-c2cc(C(F)(F)F)nc(SCC(=O)N3CC(C)OC(C)C3)n2)cc1OC (stereo not given)
48: CN(CC#CCC(c1ccccc1)c1ccccc1)C(C)(C)C
Screen / compound no.,41,42,43,44,45,46,47,48
Beta apoptosis,-3.0,-4.2,-3.1,7.5,-5.3,/,/,4.9
Vif A3G,17.9%,-2.6%,/,/,0.7%,1.9%,2.1%,10.6%
Bfl-1 A1 inh,-0.7,1.2,1.3,1.4,0.7,-0.2,/,1.5
MLL AF4-AF9 inh,/,-1.0,-3.2,-1.1,-1.6,-0.4,/,/
Calb FLC,-5.9,/,-2.8,2.0,4.4,0.1,3.2,16.8
T cruzi repl,1.1,/,-7.3,7.7,14.7,14.1,11.4,9.8
RanGTP-Imp inh,2.6,/,-2.1,4.4,4.5,0.8,6.8,0.0
LANA-H2A inh,/,0.0,-5.8,3.2,-2.0,-4.7,/,2.6

49: CCOC(=O)C1=C(C)NC(=O)C1(NC(=O)c1cccnc1)C(F)(F)F (stereo not given)
50: CC(C)Cn1c(CN2CCN(C(=O)c3ccco3)CC2)nc2c1c(=O)n(C)c(=O)n2C
51: COCCNC(=O)c1c(CSc2ccc(Cl)cc2)noc1C(=O)NCc1ccccc1
52: Cc1cc(C)cc(N(C(C)C(=O)N2CCCC2)S(C)(=O)=O)c1 (stereo not given)
Screen / compound no.,49,50,51,52
Beta apoptosis,/,0.1,-0.2,-3.3
Vif A3G,11.0%,-0.9%,/,2.7%
Bfl-1 A1 inh,0.8,0.4,1.2,0.3
MLL AF4-AF9 inh,/,-1.7,/,-3.0
Calb FLC,-5.5,-4.0,2.8,0.0
T cruzi repl,-11.3,-5.7,12.0,-13.2
RanGTP-Imp inh,?,0.1,1.9,0.5
LANA-H2A inh,1.5,-2.0,0.6,-2.4
